Source: PubChem BioAssay (National Center for Advancing Translational Sciences (NCATS))
nsP2pro primary = Primary qHTS for inhibitors of NSP2Pro chikungunya virus (CHIKV); Polyprotein P1234 (Chikungunya virus (strain S27-African prototype)), Q8JUX6; FRET peptide cleavage, nsP2pro, fluorescence 1 h; Potency, µM (doses to about 24.9 µM), without a hit: top-dose activity change, negative = inhibition, hits mostly inhibitors; 1.1% of 31,000 active; active means well fitted inhibition curve with a large enough effect; inconclusive means small, poorly fitted or top-dose-only effect; inactive means no such curve, though single readings can be large or run the other way; note: nearly all actives have a fitted effect of over 60% in size; a reference inhibitor and vehicle were the controls
* = called active by the depositor; i = inactive; u = inconclusive; & = joins results of further samples; [ ] = another dose, or the depositor's remark. % is set by controls: 0 for no effect and ±100 for the full control effect; potency is the fitted concentration of half-maximal effect. These rows are one share of the data; count on the stated rates, not on these rows.

entry	molecule	nsP2pro primary
1	CCOc1ccc(N(CC(=O)OC)S(=O)(=O)c2ccc3c(c2)n(C)c(=O)c(=O)n3C)cc1	-11%
2	COCCN1CC(C(=O)NCc2sc3ccccc3c2Cl)CCC1=O (stereo not drawn)	3%
3	Cc1cc(N[S+](=O)([O-])c2ccc(NC(=O)Cc3ccc(F)c(F)c3)cc2)no1	-1%
4	Cc1ccnc(NC(=S)N2CCN(c3ccccc3C(F)(F)F)CC2)c1	-1%
5	CN1C(=O)C2(CCN(Cc3cccn3C)C2)c2ccccc21 (stereo not drawn)	u
6	O=C(NCCc1ccc(Cl)cc1)C1CCc2nnc(C3CCN([S+](=O)([O-])c4ccccc4)CC3)n21 (stereo not drawn)	i
7	O=C1CCCC2=C1C(c1[nH]ncc1Cl)NC(=NCc1ncc[nH]1)N2 (stereo not drawn)	-5%
8	O=c1c(-n2ccnn2)c[nH]n1-c1cc(N2CCOCC2)ncn1	9%
9	O=[N+]([O-])c1ccc(Nc2nc(N3CCOCC3)nc(N3CCOCC3)n2)cc1	24%
10	COc1ccc(C2Nc3ccccc3C(=O)N2Cc2ccccc2OC)cc1COc1c(C)cc(NC(C)=O)cc1C (stereo not drawn)	-7%
11	NC(=O)c1c(NC(=O)CS(=O)(=O)c2ccc(Cl)cc2)sc2c1CCCCC2	-19%
12	O=C(CCc1c[nH]c2ccccc12)NC1CCN(c2ccc(=O)[nH]n2)CC1	-11%
13	CC(C)(C)NCc1cc(Nc2ccnc3cc(Cl)ccc23)c2c(c1O)CCCC2	6%[0.199 µM]
14	COc1ccc(OC)c(-c2nc(Nc3ccccc3C)sc2CC(=O)O)c1	-33%
15	CCOc1ccc(CCNC(=O)c2cnon2)cc1OCC	3%
16	Cc1ccc(NC(=O)c2c(NC(=O)Cc3ccccc3)sc3c2CCCC3)cc1	-21%
17	Cc1ccc(S(=O)(=O)NC[C@H]2OC[C@@H](NCc3ccc(S(C)(=O)=O)cc3)[C@@H]2O)cc1	-8%
18	CC(=O)OCC1OC(OC2COC(OC3COC(OC4C(OC5C(CO)OC(OC6CCC7(C)C(CCC8(C)C7CC=C7C9CC(C)(C)CCC9(C(=O)OC9OC(CO)C(O)C(O)C9OC9OCC(OC%10OCC(O)(CO)C%10O)C(O)C9O)C(O)CC78C)C6(C)C)C(O)C5O)OCC(O)C4O)C(O)C3O)C(O)C2O)C(OC(=O)/C=C/c2ccccc2)C(O)C1OC(C)=O (stereo not drawn)	24%[2.68 µM]
19	O=C(c1ccccc1-c1ncc[nH]1)N1CCOC(Cc2cccc(F)c2)C1 (stereo not drawn)	3%
20	CC(C)c1cccc(OCCn2c(-c3ccc(Cl)cc3)nc3ccccc3c2=O)c1	-14%
21	Cc1noc2nc3c(c(C(=O)N[C@H]4CC[C@H]4N)c12)CCC3	-1%
22	Cc1cnc(NC(=O)c2cc(S(=O)(=O)N(C)C)ccc2N2CCCC2)s1	2%
23	O=c1[nH]c2cc(Br)ccc2n2cccc12	1%
24	CCOc1cccc2cc(S(=O)(=O)c3ccccc3F)c(=O)oc12	-12%
25	Cc1cc(C)c(NC(=O)Cn2c(=O)n(-c3cccc(C(F)(F)F)c3)c(=O)c3c(C)c(C)sc32)c(C)c1	-12%
26	CCCn1cc(C(=O)NCC2COc3cc(OC)ccc3C2)c(C)n1 (stereo not drawn)	i
27	COc1cccc(CNc2ccc([S+](=O)([O-])Nc3cc4ccccc4s3)cc2)c1O	-67%
28	Cc1cccc(-c2nocc2CCC(=O)NCc2ccc(F)cc2F)c1	3%
29	Fc1ccc(N2CCN(c3nc4ccccc4c4nc(-c5ccccc5)nn34)CC2)cc1	-3%
30	Cc1ccc(CSCC(=O)NCc2ccc(F)cc2)cc1	-8%

3 entries out of the list, sorted by length of the SMILES, falling.
entry	molecule	nsP2pro primary
6	O=C(NCCc1ccc(Cl)cc1)C1CCc2nnc(C3CCN([S+](=O)([O-])c4ccccc4)CC3)n21 (stereo not drawn)	i
19	O=C(c1ccccc1-c1ncc[nH]1)N1CCOC(Cc2cccc(F)c2)C1 (stereo not drawn)	3%
24	CCOc1cccc2cc(S(=O)(=O)c3ccccc3F)c(=O)oc12	-12%

Part of the list above, with each value named.
14: COc1ccc(OC)c(-c2nc(Nc3ccccc3C)sc2CC(=O)O)c1
  nsP2pro primary = -33%

15: CCOc1ccc(CCNC(=O)c2cnon2)cc1OCC
  nsP2pro primary = 3%

16: Cc1ccc(NC(=O)c2c(NC(=O)Cc3ccccc3)sc3c2CCCC3)cc1
  nsP2pro primary = -21%

17: Cc1ccc(S(=O)(=O)NC[C@H]2OC[C@@H](NCc3ccc(S(C)(=O)=O)cc3)[C@@H]2O)cc1
  nsP2pro primary = -8%

Further structures follow:
entry	molecule	nsP2pro primary
31	C[C@@H]1O[C@@H](OC2C(O[C@H]3[C@H](O[C@H]4CC[C@@]5(C)C(CC[C@]6(C)C5CC=C5C7CC(C)(C)CC(O)[C@]7(C)CC[C@]56C)C4(C)C)O[C@H](C(=O)O)[C@@H](O)[C@@H]3O)OC(CO)C(O)C2O)[C@H](O)[C@H](O)[C@H]1O (stereo partly drawn)	38%[activator][5.1 µM]
32	Fc1ccc(N2CCN(Cc3cccn3-c3nnc(N4CCN(C5CCCCC5)CC4)s3)CC2)cc1	-11%
33	Nc1ccc(O)c(C(=O)O)c1	97%[activator]
34	Cc1ccccc1N1C(=O)c2cc(S(N)(=O)=O)c(Cl)cc2NC1C (stereo not drawn)	-2%&-6%
35	CSCCC(NS(=O)(=O)c1ccc2c(c1)oc(=O)n2C)C(=O)Nc1ccc(F)c(Cl)c1 (stereo not drawn)	-3%
36	COc1ccc(N2CCN(S(=O)(=O)c3ccc4c(c3)CC(=O)N4)CC2)cc1	i
37	CN(C)CCCNc1nc(CN2CCN(C(c3ccc(Cl)cc3)c3ccc(Cl)cc3)CC2)nc2ccccc12	405%[activator]
38	Cn1c(NCCO)nc2c1c(=O)n(Cc1ccccc1Cl)c(=O)n2C	-2%
39	CC1=COC(OC2OC(CO)C(O)C(O)C2O)C2C(CO)CC(OC(=O)/C=C/c3ccc(O)cc3)C12 (stereo not drawn)	30%[activator][10 µM]
40	CC(C)N(C)Cc1nnnn1CC(=O)N1CCC(CCn2cccn2)CC1	i
41	C1CCC(COCCc2noc(C3CNC3)n2)C1	-13%
42	O=C(COc1ccccc1CNc1ccc(F)cc1)Nc1ccc(Cl)cc1	29%
43	Cc1cc(C)nc(NC(=S)N2CCN(c3ncccc3C#N)CC2)c1	1%
44	CN(Cc1cnc2nc(N)nc(N)c2n1)c1ccc(C(=O)N[C@@H](CCC(=O)O)C(=O)O)cc1	2%
45	NC(=O)c1ncn(C2OC(CO)C(O)C2O)c1O (stereo not drawn)	-12%
46	Oc1c(C(Nc2ccccn2)c2ccccc2)cc(Cl)c2cccnc12 (stereo not drawn)	i
47	CCOc1ccc(N(C)S(=O)(=O)c2ccc3[nH]cc(C(=O)NCc4ccccc4)c(=O)c3c2)cc1	-11%
48	CC(C)(O)C#Cc1ccc(C(=O)N2CCOCC2CC(=O)NC2CC2)o1 (stereo not drawn)	u
49	C=CC[C@@H]1/C=C(\C)C[C@H](C)C[C@H](OC)[C@H]2O[C@@](O)(C(=O)C(=O)N3CCCC[C@H]3C(=O)O[C@H](/C(C)=C/[C@@H]3CC[C@@H](O)[C@H](OC)C3)[C@H](C)[C@@H](O)CC1=O)[C@H](C)C[C@@H]2OC	47%&-9%
50	OC(CCN1CCCCC1)(c1ccccc1)C1CC2C=CC1C2 (stereo not drawn)	4%
51	CCOC(=O)c1sc(NC(=O)c2nc(SC)ncc2Cl)c(C(=O)OCC)c1C	38%
52	CCN(CC)C(=O)c1cnn(-c2ccc(F)cc2)c1-n1cccc1	u
53	CC1(O)CCC2C(C3C1CCC3(C)O)C2(C)C (stereo not drawn)	3%
54	CCN1CCN(c2ncc3c(n2)CCN(Cc2sccc2C)C3)CC1	7%
55	O=C(CN(c1ccc(Cl)c(C(F)(F)F)c1)S(=O)(=O)c1ccccc1)Nc1cccnc1	-1%
56	Nc1nnc(-c2ccc3ccccc3c2)o1	-8%
57	Cc1ccccc1NC(=O)Cn1c(=O)n(CCC(=O)N2CCc3ccccc3C2)c(=O)c2ccccc21	-22%
58	C=CCOc1ccc(CC(=O)O)cc1Cl	7%[39.2 µM]
59	O=C(OCC12OC1C=CC(OC(=O)c1ccccc1)C2O)c1ccccc1 (stereo not drawn)	2%
60	Cc1noc(C)c1Cc1ccc(C(=O)NC2CCc3nnc(C)n3CC2)o1 (stereo not drawn)	-16%

Some values from the entries so far.
Entry for entry 31 in nsP2pro primary: 38%[activator][5.1 µM]
Entry for entry 49 in nsP2pro primary: 47%&-9%

(listing goes on)
entry	molecule	nsP2pro primary
61	COc1ccc(CNC(=O)CCCN2C(=O)CSc3c2c(C)nn3-c2ccccc2)cc1	-13%
62	CCOC(=O)c1c(S(=O)(=O)N2CCCC(C(=O)Nc3ccccn3)C2)c(C)n(C)c1C (stereo not drawn)	-20%
63	Cc1cc(OCC(=O)N2CCN(CCc3ccncc3)CC2)cc(C)c1Cl	-19%
64	CC(C)CCNC(=O)N1CC[C@@H]2COC(=O)N(Cc3ccccc3)[C@@H]2C1	-7%
65	Cn1cc(C(=O)NCc2nnc3n2C(C(=O)NC2CC2)CC3)cn1 (stereo not drawn)	-1%
66	CCC(=O)N1CCc2cc(Br)cc(S(=O)(=O)Nc3ccc(C)cc3C)c21	-13%
67	Nc1nccc(Oc2ccc(NC(=O)c3c[nH]cc(-c4ccc(F)cc4)c3=O)cc2F)c1Cl	7%
68	O=c1c2ccccc2nc2sc(NCc3ccc(Cc4ccccc4)cc3)nn12	i
69	CCCC1C(=O)N2C(N(C)C)=Nc3ccc(C)cc3N2C1=O (stereo not drawn)	u
70	O=C(Nc1c(C(=O)N2CCN(c3ccccc3F)CC2)oc2ccccc12)c1ccc(Br)o1	-29%
71	Cc1cc(OC(C)C(=O)N(Cc2ccco2)Cc2ccccc2F)cc(C)c1Cl (stereo not drawn)	-29%
72	CCCOc1ccc(CNC(=O)C(C)n2nc(C)n3c(cc4occc43)c2=O)cc1 (stereo not drawn)	-9%
73	Cc1cccc(C)c1NC(=O)C1CCCN1S(=O)(=O)c1ccccc1 (stereo not drawn)	-13%
74	N#CSCC(=O)O	-6%
75	OC1(CN2CCC(COc3noc4cccc(O[C@@H]5CCOC5)c34)CC2)CCOCC1	1%
76	OC1C(O)C(O)C(O)C(O)C1O (stereo not drawn)	-19%&-3%
77	O=C(c1cnccn1)N1CCC(c2nc(C3CC3)no2)C1 (stereo not drawn)	3%
78	Cc1cc2c(s1)c1cnn(Cc3cccc(Cl)c3)c(=O)c1n2C	3%
79	CN(C)C[C@@H]1CN(c2ccncn2)C[C@H]1NC(=O)COc1ccccc1	i
80	O=C(NCc1ccccc1Cl)c1ccc2c(c1)nnn2C1CCCC1	-6%
81	C=CC1(C)C=C2C(=O)OC(=O)C3=C(CCCC3(C)C)C2(O)CC1 (stereo not drawn)	7%
82	CCOC(=O)c1cc(S(=O)(=O)N(C)c2ccccc2)[nH]n1	-21%
83	Cc1cnc(-c2ccccc2)n1C1CCN(C(=O)c2ccco2)CC1	4%
84	CN(C)CC(C)(C)CNc1nn2c(-c3ccccc3)nnc2cc1C1CCC1	u
85	C=C1CCC2C(C)(C)C(O)CCC2(C)C1CCC(C)CCO (stereo not drawn)	35%
86	Cc1ccccc1C(=O)Nc1nc(-c2nnn(-c3ccc(C(C)C)cc3)c2C)ns1	-13%
87	COc1ccc(Cl)cc1NC(=O)NCCn1c(=O)oc2ccc(C)cc21	-9%
88	CC(C)(C)OC(=O)N1CCC(c2c(C(=O)N3CCOCC3)cnn2-c2cccc(F)c2)CC1	-20%
89	CCOC(=O)c1cccc(-n2cnc(/C=C3\NC(=O)N(CC(=O)O)C3=O)c2)c1	5%
90	CC(=O)O[C@@H]1C[C@@]23C[C@@]24CC[C@H](OC2OC[C@@H](O)[C@H](O)[C@H]2O)C(C)(C)[C@@H]4CC[C@H]3[C@]2(C)CC3OC4(C[C@@H](C)C3[C@@]12C)OCC1(C)OC14 (stereo partly drawn)	7%[10 µM]
91	O=C(NCc1ccc(Cl)cc1)C1CC(=O)N(c2n[nH]c3cccc(F)c23)C1 (stereo not drawn)	i
92	COc1ccc(NC(=O)Cn2c(=O)n(CCCC(=O)NCc3ccccc3Cl)c(=O)c3ccccc32)c(OC)c1	-23%
93	CCN(Cc1ccccc1)C(=O)c1c(C)oc2ncn(C)c(=O)c12	u
94	CC(C)S(=O)(=O)N(C)Cc1cccc(N2CCN(C(=O)c3c(Cl)cccc3Cl)CC2)c1F	-9%
95	CCn1ccc(C(=O)N2CCc3nc(NC)nc(C(=O)N4CCCC4)c3C2)n1	i
96	O=C(Nc1ccccc1)Nc1nc(Nc2cc(F)cc(F)c2)nc(NC2CCCC2)n1	i
97	C=C1C(=O)O[C@@H]2[C@H]3C(C)=CC(=O)C3=C(C)CC[C@@H]12	5%
98	CC(C)(C)OCC1CN(Cc2cccs2)[S+](=O)([O-])c2cccnc2O1 (stereo not drawn)	4%[10 µM]
99	COc1ccc(-n2ncc(C(=O)Nc3cccc(C(F)(F)F)c3)c2C2CCN(C(=O)OC(C)(C)C)CC2)cc1	13%
100	COc1cc2c(cc1OC)C(COc1ccccc1OC)N(C(=O)CC(C)C)CC2 (stereo not drawn)	-16%
101	NS(=O)(=O)c1ccc(-n2nc(C(F)(F)F)cc2-c2ccc(Cl)cc2)cc1	4%
102	CCOc1ccc(NC(=O)c2ccc3nc(Cc4ccccc4)oc3c2)cc1	-10%
103	CC(C)(C)OC(=O)N1CCN(c2ccc(OCc3ccc(-c4ccc(C#N)cc4)o3)cc2)CC1	-19%
104	CCCc1nnc(-c2cnn(C)c2N)n1CCCn1ccnc1	0%
105	Cn1c(NCc2cccc(Cl)c2)nc2ccccc21	1%
